Screening data (PubChem BioAssay)
ClpP mod: qHTS Assay for Activators of ClpP; Potency, µM (series often up to 57.5 µM), inactives show top-dose activity change, negative = active; ATP-dependent Clp protease proteolytic subunit (Bacillus subtilis (strain 168)), P80244; purified B. subtilis ClpP, FRET peptide cleavage, 20 min; 340,000 compounds, 1.9% hits; active = well fitted falling curve with a large enough effect; inconclusive = small, poorly fitted or top-dose-only effect; inactive = no such curve, though single readings can be large or run the other way; also: potency is read from the fitted curve at half-maximal effect; the source files actives as falling curves though it sought activators and does not explain the sign; nearly all actives have a fitted effect of over 65% in size; many hits overshoot -100%
Target sequence (P80244 whole entry, looked up): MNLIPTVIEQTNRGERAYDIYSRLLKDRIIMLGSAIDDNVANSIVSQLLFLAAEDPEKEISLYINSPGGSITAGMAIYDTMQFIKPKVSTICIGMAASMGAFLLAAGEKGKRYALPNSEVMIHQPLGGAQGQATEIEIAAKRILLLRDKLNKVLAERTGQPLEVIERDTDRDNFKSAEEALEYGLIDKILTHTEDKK
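Buffer: 100 mM Tris/HCl pH8, 100 mM KCl, 0.05% low protease BSA, 2.5% glycerol, 0.01% Tween-20. ClpP 10 microg/mL final; 20 min RT; delta FRET normalized to ADEP and DMSO controls.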
gsp agonist: activates gsp, the McCune-Albright syndrome mutation; gsp mutant cells, cAMP HTRF, 30 min; control for the full effect not named in the record; 340,000 compounds, 0.13% hits; AID 624287; Potency, µM (top dose mostly 76.9 µM), for inactives: at the top dose activation (cAMP increase), hits mostly activators; active = well fitted activation curve with a large enough effect; inconclusive = small, poorly fitted or top-dose-only effect, or another doubt; inactive = no such curve, though single readings can be large or run the other way; cell line not stated here;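 also: phosphodiesterase inhibitor Ro 20-1724 added with compounds to block cAMP breakdown; potency is read from the fitted curve at half-maximal effect; nearly all actives have a fitted effect of over 60% in size; about a fifth of the inactives were tested at one dose only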
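Cells stably selected in G418 were plated at 2000/well, grown 16-24 hr, then given compounds in DMSO with the PDE inhibitor […] (300 uM solution added) for 30 min at 37C; cAMP was read by HTRF.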
Sfp PPTase inh: Sfp phosphopantetheinyl transferase inhibition; Biochemical Sfp PPTase activity, qHTS; Potency, µM, without a hit: max response, negative = inhibition, usual class: inhibitors; 310,000 compounds, 3.5% hits; active = well fitted inhibition curve with a large enough effect; inconclusive = small, poorly fitted or top-dose-only effect, or another doubt; inactive = no such curve, though single readings can be large or run the other way;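 also: the enzyme is Sfp with the accession as filed and its product quenches rhodamine fluorescence; potency is read from the fitted curve at half-maximal effect; 0% = enzyme reaction without inhibitor and -100% = no enzyme wells; top concentration of the series not given in the record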
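Compounds were incubated with enzyme (final 15 nM) for 15 min at room temperature before substrate addition started the reaction. Fluorescence at 525 nm excitation, 598 nm emission was recorded immediately and after 30 minutes.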
gsp antag: gsp mutant antagonism. 340,000 compounds, 0.4% hits. Potency, µM (series often up to 76.9 µM), for inactives: at the highest dose activity change, negative = inhibition, hits mostly inhibitors. AID 624288. gsp-mutant cells, cAMP HTRF, 30 min; control for the full effect not named in the record; active = falling curve of any shape with a large fitted effect; inconclusive = falling curve, mostly with a smaller effect; inactive = flat or rising curve; cell line not stated here;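 also: intracellular cAMP measured with PDE inhibitor Ro 20-1724 present during compound exposure; potency is read from the fitted curve at half-maximal effect; % is scaled to controls: 0 for no effect and ±100 for the full control effect; nearly all actives have a fitted effect of over 65% in size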
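HTRF cAMP read-out (cAMP-d2 plus anti-cAMP antibody-K in lysis buffer, 30 min RT). Before lysis, cells are exposed to compounds with […] for 30 min at 37C in DPBS containing Ca/Mg, BSA and Tween 20.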
TRPV1 PAM: potentiators of human vanilloid receptor 1 (TRPV1); potentiation, % at 8.33 µM; TRPV1-expressing cells, Fluo-8 calcium influx, capsaicin EC20 potentiation; host cell line not named in the record; control for the full effect not named in the record; 320,000 compounds, 0.02% hits; AID 540277; active means potentiation above 80%; inconclusive means 30% to 80%; inactive means below 30%; also: 0% is about no effect
Target sequence (Q8NER1 whole entry, looked up): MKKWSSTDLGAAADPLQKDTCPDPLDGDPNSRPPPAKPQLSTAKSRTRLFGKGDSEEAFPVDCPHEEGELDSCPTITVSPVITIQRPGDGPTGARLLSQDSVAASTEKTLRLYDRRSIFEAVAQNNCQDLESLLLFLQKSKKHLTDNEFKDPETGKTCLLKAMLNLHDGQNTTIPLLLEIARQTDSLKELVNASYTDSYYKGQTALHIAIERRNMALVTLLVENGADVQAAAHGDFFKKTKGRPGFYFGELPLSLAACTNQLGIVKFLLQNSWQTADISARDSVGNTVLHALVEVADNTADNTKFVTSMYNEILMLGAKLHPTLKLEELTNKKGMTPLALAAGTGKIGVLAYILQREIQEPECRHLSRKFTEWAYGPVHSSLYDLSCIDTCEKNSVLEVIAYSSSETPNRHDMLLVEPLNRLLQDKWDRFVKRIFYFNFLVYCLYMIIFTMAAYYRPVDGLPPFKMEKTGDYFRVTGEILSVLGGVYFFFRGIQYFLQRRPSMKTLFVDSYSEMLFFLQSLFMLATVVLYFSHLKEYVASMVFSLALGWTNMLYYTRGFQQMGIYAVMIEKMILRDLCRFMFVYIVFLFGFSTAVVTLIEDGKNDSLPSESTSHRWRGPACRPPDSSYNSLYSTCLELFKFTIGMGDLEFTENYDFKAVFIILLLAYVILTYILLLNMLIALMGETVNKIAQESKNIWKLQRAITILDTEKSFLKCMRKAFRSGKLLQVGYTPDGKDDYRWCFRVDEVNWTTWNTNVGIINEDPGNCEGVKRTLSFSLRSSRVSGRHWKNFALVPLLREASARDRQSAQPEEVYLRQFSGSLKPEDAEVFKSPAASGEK
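Fluo-8 calcium influx in TRPV1-expressing cells, kinetic read (ex 480/em 520 nm). Compound added and read 3 min for agonist activity, followed by capsaicin at EC20 final and 2 min further read for enhancement.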
Menin MLL FP FL: displaces fluorescein MLL peptide from human menin | Fluorescence polarization, fluorescein-MLL peptide displacement from menin | FP activity change, % at 61.4 µM | AID 1766 | 290,000 tested, under 10 active; inconclusive = falling polarisation curve, or a change in total fluorescence; inactive = total fluorescence flat and polarisation flat or rising; no compound was filed as active; the % refers to the polarisation; negative = inhibition;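 also: % of control where 0% means no effect; inhibitors lower the polarisation; unlabelled MLL peptide was the positive control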
D2 PAM: potentiates the human D2 dopamine receptor allosterically; potentiation, % (test concentration not listed); P14416; 360,000 compounds, 0.23% hits; DiscoveRx D2 beta-arrestin cells, luminescence, 90 min; 100% = 57 uM dopamine signal; AID 624464; active = potentiation of 50% or more; inconclusive = 30% to 50%; inactive = 30% or less;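 also: compound concentration not given in the record; tested on top of an EC20 dose of dopamine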
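D2 cells co-treated with compound plus 50 nM dopamine (EC20) for 90 min at 37 deg C to detect potentiation. Beta-arrestin recruitment was read as enzyme-fragment luminescence after 1 h at ambient temperature. Full response was set by 57 uM dopamine.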
Starred values were filed as active, the others as inactive; u = inconclusive; x = not tested or not shown; & = joins results of further samples; [ ] = dose if it differs, or a comment.

SMILES	ClpP mod	gsp agonist	Sfp PPTase inh	gsp antag	TRPV1 PAM	Menin MLL FP FL	D2 PAM
CC(=O)NCC(=O)N(Cc1ccco1)C1(C(=O)NC2CCCCC2)CCCCC1	-3.1%	17.8%	9.8%	10.7%	-1.3	-0.7	-18.4
CC(=O)c1ccc(NC(=O)COC(=O)c2c3c(nc4ccccc24)/C(=C\c2cccs2)CCC3)cc1	0.9%	3.9%	-86.5%	0.1%	6.2	11.6	1.8
C/C=C(\C)C(=O)N1CC2(CC(c3cccc(NC(=O)COc4ccc(Cl)cc4)c3)=NO2)C[C@@H]1C(N)=O (stereo not given in full)	0.8%	x	17.7%	2.1%	11.0	1.1	5.3
COc1ccc(CCNS(=O)(=O)c2cc3c(cc2C)NC(=O)CO3)cc1OC	0.9%	u	9.5%	9.3%	-20.3	0.0	0.5
O=C(COC(=O)CCCNC(=O)c1ccc(Cl)cc1)Nc1cc(Cl)ccc1Cl	-3.7%	-5.2%[15.4 µM]	1.3%	-12.1%	-4.2	3.1	-15.3
Cc1ccc(C(=O)O/N=C\c2ccc(N3CCCCC3)c([N+](=O)[O-])c2)cc1	0.2%	-0.4%	6.4%	6.7%	-10.7	0.7	7.3
Cc1ccccc1Nc1nc(-c2sc(NC(=O)c3ccco3)nc2C)cs1	-1.8%	x	14.1µM*	-10.4%	-11.7	u	-19.5
COc1ccc(OCCC(=O)OCC(=O)NCc2ccccc2OC)cc1	x	13.2%[15.4 µM]	x	4.2%	-9.1	x	25.1
Cc1nn2c(-c3ccccn3)ccnc2c1Cl	0.5%	9.1%	1.1%	3.9%	-13.5	-1.2	-2.1
CC(NC(=O)COC(=O)C1(C)CC1(Cl)Cl)c1ccccc1 (stereo not given)	0.2%	-28.1%	x	12.2%	-7.9	x	0.6
CCC(C(=O)Nc1ccc(OC)c(Cl)c1)c1ccccc1 (stereo not given)	-1.3%	12.0%[15.4 µM]	-20.2%	-34.9%	1.2	2.3	-3.2
C=CCn1c(C)cc(C2=NNC(=NCc3ccccc3)SC2)c1C	x	10.6%[15.4 µM]	-5.1%	13.7%	-14.0	u	-8.1
Fc1ccccc1NC(=S)NCc1ccc(Cl)cc1	-3.1%	-13.2%[15.4 µM]	19.2%	-11.4%	-11.6	3.1	-2.6
Cc1nc(SCC(=O)NC2CCS(=O)(=O)C2)c(C#N)c(C)c1C (stereo not given)	-0.3%	17.4%	x	7.3%	0.2	x	-1.2
O=C1CCn2c1c(O)c1ccccc1c2=O	u	-8.9%	x	3.3%	x	x	-13.9
O=C1CC(c2ccccc2)Oc2ccc(Cl)cc21 (stereo not given)	u	-12.3%	x	-6.9%	x	x	-13.4
O=[N+]([O-])c1ccccc1/C=N\N1CCN(c2ccccc2)CC1	-0.4%	0.4%	-1.3%	2.1%	6.4	5.8	-32.2
Cc1cc(C(=O)N/N=C/c2cc(N=Nc3ccccc3)ccc2O)n[nH]1	0.9%	5.1%	-14.1%	4.3%	4.6	5.7	-31.4
O=C(Nn1c(C2CCCCC2)nc2ccccc2c1=O)c1cc(Cl)ccc1[N+](=O)[O-]	x	-0.7%[15.4 µM]	20.1%	-11.4%	-6.3	-1.2	-5.2
C=CCn1c(=S)[nH]c2sc3c(c2c1=O)CCCC3	-7.8%	u	11.8%	7.3%	23.7	-4.4	-21.3
Cc1ccccc1Cn1nnc(C(=O)Nc2cccc(C)c2C)c1N	u	-13.9%	3.8%	-20.5%	14.7	0.8	6.3
COc1ccc(S(=O)(=O)Nc2ccc(S(=O)(=O)Nc3nc(C)cc(C)n3)cc2)cc1OC	2.0%	-5.8%	3.5%	-2.2%	7.6	1.0	-8.7
O=C(CSc1nc2c(c(=O)n1-c1ccc(Br)cc1)SCC2)NCc1ccco1	0.0%	25.4%	-13.4%	-29.1%	-19.9	3.4	-8.7
CN(C)C(CNC(=O)c1ccc(C2SCCS2)cc1)c1ccccc1 (stereo not given)	x	-3.4%[15.4 µM]	4.3%	2.5%	26.2	5.8	-11.3
COc1ccc(C(O)P(=O)(OCCC(C)C)c2ccc(N(C)C)cc2)cc1 (stereo not given)	-4.8%	-12.1%	0.2%	2.5%	5.0	-0.5	-9.4
C/C=C/c1ccc(OCCCNCC(C)O)c(OC)c1 (stereo not given)	-2.0%	1.5%	15.2%	9.5%	2.3	-1.2	-32.9
O=C(N/N=C/c1ccc(O)cc1)c1csc2ccccc12	-14.3%	-27.2%	-11.5%	-9.7%	-13.3	-0.5	-4.7
C=CCc1cccc(/C=N/NC(=O)c2ccccc2Br)c1O	5.8%	5.6%	0.7%	u	-14.4	0.8	-6.8
CCS(=O)(=O)c1nc(S(=O)(=O)c2ccc(C)cc2)c(N2CCOCC2)s1	-2.3%	u	5.7%	2.7%	15.9	x	-5.7
COc1cc(/C=C/C(=O)OCC(=O)N(C)Cc2ccccc2)ccc1O	-15.9%	-39.7%[inhibitor]	x	1.8%	-0.9	x	-2.3
N#CC1(NC(=O)CSc2nnc3n2CCCCC3)CCCCC1	2.4%	12.2%	x	7.9%	x	x	0.9
COc1ccccc1C1C2=C(CC(C)(C)CC2=O)N(CC(=O)O)C2=C1C(=O)CC(C)(C)C2	3.9%	-17.5%	6.6%	2.2%	8.9	-10.3	-1.2
CC(C)CC(=O)Nc1nnc(S(=O)(=O)N2CCc3ccccc32)s1	-2.4%&-1.9%	-42.1%	21.5%	7.0%	-16.9	-2.3	-3.7
C=CCNC(=O)Cc1c(OC)ccc2cc(Br)ccc12	x	17.1%[15.4 µM]	1.8%	6.8%	15.5	3.0	12.2
Brc1ccccc1-c1nc2c3ccccc3ncn2n1	-11.0%	26.6%	x	-14.2%	-10.8	x	-2.0
O=C(NNC(=O)C1CCC1)c1ccccc1F	-0.7%	-16.7%	x	8.0%	-8.6	x	-1.6
CCOC(=O)c1cnc(-n2nc(C)cc2C)nc1NC1CCCCC1	-1.2%	-9.2%[15.4 µM]	u	-19.7%	-7.9	-2.3	-21.1
CCOC(=O)c1sc2nc(CSCC(=O)OCc3ccc(C(=O)OC)o3)[nH]c(=O)c2c1C	80.7%	12.4%	u	u	-7.5	u	-4.3
Cc1ccc(/C=N/NC(=O)c2cccs2)s1	-2.2%	1.3%	-4.5%	40.5%[activator]	-14.1	-0.9	-7.7
O=C(Nc1cccc2c1[nH]c(=O)c1ccccc12)C(F)(F)F	-3.7%	-17.3%	x	x	x	x	1.4
CN(C)C(CNC(=O)CCNC(=O)c1ccccc1Cl)c1ccco1 (stereo not given)	-2.1%	-17.9%	x	8.6%	0.0	x	0.0
COc1ccccc1NC(=O)c1sc(NC(=O)c2ccco2)c(C#N)c1C	-0.6%	-38.4%[inhibitor]	10.7%	35.8%[activator]	0.9	-2.2	3.8
Cc1cc(NC(=O)Cn2nc(C(F)(F)F)c3c2CCC3)no1	-1.6%	-28.5%	15.2%	-3.0%	-1.0	-7.1	4.7
O=C(CCCNC(=O)c1ccc(Cl)cc1)NCc1ccc(F)cc1	x	13.0%[15.4 µM]	12.5%	-5.3%	-10.3	-6.2	-3.0
O=C(/C=C\Nc1cccc(F)c1)c1cccs1	6.4%	13.4%	-7.0%	-0.3%	-29.1	1.4	-9.2

Compound profiles, as listed above. Order of screens: ClpP mod | gsp agonist | Sfp PPTase inh | gsp antag | TRPV1 PAM | Menin MLL FP FL | D2 PAM
Entry for CCOC(=O)c1sc2nc(CSCC(=O)OCc3ccc(C(=O)OC)o3)[nH]c(=O)c2c1C : 80.7% | 12.4% | u | u | -7.5 | u | -4.3
Entry for COc1ccc(C(O)P(=O)(OCCC(C)C)c2ccc(N(C)C)cc2)cc1 (stereo not given) : -4.8% | -12.1% | 0.2% | 2.5% | 5.0 | -0.5 | -9.4
Entry for Cc1ccccc1Cn1nnc(C(=O)Nc2cccc(C)c2C)c1N : u | -13.9% | 3.8% | -20.5% | 14.7 | 0.8 | 6.3
Entry for O=C(NNC(=O)C1CCC1)c1ccccc1F : -0.7% | -16.7% | x | 8.0% | -8.6 | x | -1.6
Entry for COc1ccc(OCCC(=O)OCC(=O)NCc2ccccc2OC)cc1 : x | 13.2%[15.4 µM] | x | 4.2% | -9.1 | x | 25.1

Later entries:
SMILES	ClpP mod	gsp agonist	Sfp PPTase inh	gsp antag	TRPV1 PAM	Menin MLL FP FL	D2 PAM
CN(C1CCCCC1)S(=O)(=O)c1ccc(NC(=O)C2CCCCC2C(=O)O)cc1 (stereo not given)	31.6µM*	0.2%	11.0%	2.3%	12.8	3.6	-15.5
O=C(CNc1cccc(S(=O)(=O)N2CCCCC2)c1)Nc1ccccc1F	-2.8%	-2.4%	1.3%	-13.8%	0.6	x	2.8
COc1ccc(C(=O)N/C(=C/c2ccco2)C(=O)NCc2ccco2)cc1	-1.7%	11.7%[15.4 µM]	1.5%	-5.8%	-5.3	-4.4	0.4
COc1ccc(NC(=S)N2CCCC2)cc1OC	x	-11.5%[15.4 µM]	-7.3%	x	-0.7	0.4	-13.4
Cc1ccc(Cc2ccc(C(=O)NNC(N)=S)o2)cc1	x	6.2%[15.4 µM]	1.7%	9.3%	-40.6	-7.0	-8.3
CC(=O)c1ccc(OCc2ncc(C(F)(F)F)cc2Cl)cc1	-1.0%	10.0%[15.4 µM]	3.3%	5.7%	-2.2	0.8	-5.1
NS(=O)(=O)c1ccc(NC(=S)NCc2ccco2)cc1	x	0.5%[15.4 µM]	20µM*	x	-0.1	0.4	3.2
Cc1onc(-c2ccccc2Cl)c1C(=O)Nc1ccc(-n2nncc2-c2ccco2)cc1	-0.3%	-2.6%	-1.6%	-18.8%	29.5	-0.8	0.5
COc1ccccc1-c1ccc(Nc2cccc(C(C)=O)c2)nn1	1.6%	-24.7%	-5.1%	u	8.6	2.9	-13.1
CC(=O)c1ccc(NC(=O)CSc2nc(=O)n(CCN3CCOCC3)c3c2CCC3)cc1	-5.3%	-7.4%	x	-2.4%	2.8	x	19.8
COc1ccc(C(=O)N/C(=C\c2cn(C)c3ccccc23)C(=O)NCCCn2ccnc2)cc1	-1.1%	u	5.7%	-15.7%	u	x	-17.5
